MARV entry inh = qHTS for inhibitors of binding or entry into cells for Marburg Virus; 300,000 tested, 1.8% active; Marburg virus pseudotyped entry inhibition, cell reporter; control for the full effect not named in the record; about a third of the inactives were read at about 46 µM; Potency, µM (doses to about 37.8 µM), for the others: top-dose activity change, negative = inhibition, actives largely listed as inhibitors; active = well fitted inhibition curve with a large enough effect; inconclusive = small, poorly fitted or top-dose-only effect, or effect the other way; inactive = flat fitted curve, though single readings scatter; tested in HEK293 cells; about a fifth of its hits are not listed in these tables; also: % is scaled to controls: 0 for no effect and ±100 for the full control effect; luciferase read-out
NS1 function inh = qHTS Assay for Inhibitors of Influenza NS1 Protein Function; S. cerevisiae slowed by influenza A NS1, growth recovery by OD600; Potency, µM (highest dose often 46.1 µM), for the others: at the highest dose activity, positive = more growth; 270,000 tested, 0.4% active; active means well fitted rising curve with a large enough effect; inconclusive means small, poorly fitted or top-dose-only effect; inactive means no such curve, though single readings can be large or run the other way; also: nearly all actives have a fitted effect of over 50% in size
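S. cerevisiae expressing influenza A NS1, grown in glucose, washed, then diluted 1:100 into pH 6.0 -URA galactose medium with 23 nl compound. Growth recovery read as OD600; NS1-free strain serves as control.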
StopGo reporter = High Throughput Screening for Foot and Mouth Disease Virus Antivirals | human cells with a luciferase reporter of 2A StopGo recoding; control for the full effect not named in the record | 410,000 tested, 1.2% active | Potency, µM (series often up to 57.9 µM), for the others: at the top dose signal change, negative = less light; active = well fitted falling curve with a large enough effect; inconclusive = small, poorly fitted or top-dose-only effect; inactive = no such curve, though single readings can be large or run the other way; tested in HEK293T cells; also: % is scaled to controls: 0 for no effect and ±100 for the full control effect; nearly all actives have a fitted effect of over 45% in size; luciferase light after 4 h
SARS PLpro yeast = qHTS of Yeast-based Assay for SARS-CoV PLP. AID 485353, 2010. 330,000 tested, 0.19% active. S. cerevisiae expressing SARS-CoV PLpro, growth rescue; control for the full effect not named in the record. Potency, µM (titrated, usually from 32.9 µM), without a hit: top-dose activity, positive = growth rescue; active means well fitted rising curve with a large enough effect; inconclusive means small, poorly fitted or top-dose-only effect; inactive means no such curve, though single readings can be large or run the other way; also: 0% is about no effect; nearly all actives have a fitted effect of over 55% in size; growth read by luminescence after 48 h
Cruzain noTriton = qHTS Assay for Promiscuous and Specific Inhibitors of Cruzain (without detergent) | Cruzipain (Trypanosoma cruzi), P25779 | purified cruzain, Z-FR-AMC fluorescence, no detergent | Potency, µM, inactives show max response, negative = inhibition, most hits filed as inhibitors | 200,000 tested, 2.3% active;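 also: plate controls were enzyme without inhibitor for no effect and buffer without enzyme for full effect; nearly all actives have a fitted effect of over 40% in size; top concentration of the series not given in the record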
Target sequence (P25779 123-467 limits assumed): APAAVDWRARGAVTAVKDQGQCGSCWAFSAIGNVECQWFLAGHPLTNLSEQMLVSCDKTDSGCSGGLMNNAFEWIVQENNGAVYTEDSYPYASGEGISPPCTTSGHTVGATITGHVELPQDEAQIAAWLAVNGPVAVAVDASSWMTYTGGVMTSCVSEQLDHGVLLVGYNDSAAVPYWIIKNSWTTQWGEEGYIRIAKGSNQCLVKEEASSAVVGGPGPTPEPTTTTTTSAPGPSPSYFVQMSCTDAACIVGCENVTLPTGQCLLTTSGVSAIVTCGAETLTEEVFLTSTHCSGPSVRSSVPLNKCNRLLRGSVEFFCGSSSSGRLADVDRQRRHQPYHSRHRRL
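Detergent-free condition (0.00005% Triton X-100) in acetate buffer pH 5.5 with DTT. 1.5 nM enzyme and compound were pre-mixed 15 min, then 2 uM Z-FR-AMC substrate added; reaction progress from fluorescence change between first and third reads (60 s).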
Cruzain Triton = qHTS Assay for Promiscuous and Specific Inhibitors of Cruzain (with detergent) | Cruzipain (Trypanosoma cruzi), P25779 | purified cruzain, Z-FR-AMC fluorescence, 0.01% Triton | Potency, µM, inactives show max response, negative = inhibition, hits mostly inhibitors | 200,000 tested, 0.43% active | AID 1478, 2009;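 also: plate controls were neutral wells for no effect and buffer without enzyme for full effect; nearly all actives have a fitted effect of over 40% in size; top concentration of the series not given in the record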
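Compounds were screened in titration against cruzain (1.5 nM) with 0.01% Triton X-100 to counter colloidal aggregation. Activity was the AMC fluorescence increase over 60 s after adding 2 uM Z-FR-AMC at pH 5.5.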
LASV entry inh = qHTS for Inhibitors of binding or entry into cells for Lassa Virus. 300,000 tested, 1.2% active. Potency, µM (titrated, usually from 37.9 µM), for inactives: at the top dose activity change, negative = inhibition, hits mostly inhibitors. Lassa virus pseudotype entry inhibition, cell reporter; control for the full effect not named in the record; active means well fitted inhibition curve with a large enough effect; inconclusive means small, poorly fitted or top-dose-only effect, or effect the other way; inactive means flat fitted curve, though single readings scatter; tested in HEK293 cells; also: % is scaled to controls: 0 for no effect and ±100 for the full control effect; nearly all actives have a fitted effect of over 50% in size; luciferase read-out
RE007 growth inh = qHTS Assay for Inhibitors of the HIV-1 protein Vpr | Potency, µM (top dose mostly 92.2 µM), without a hit: top-dose activity change, negative = less growth | 360,000 tested, 0.21% active | S. pombe RE007 Vpr strain, BacTiter-Glo ATP luminescence, 24 h; control for the full effect not named in the record | AID 651644, 2012; active = well fitted falling curve with a large enough effect; inconclusive = small, poorly fitted or top-dose-only effect; inactive = no such curve, though single readings can be large or run the other way;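 also: % is scaled to controls: 0 for no effect and ±100 for the full control effect; nearly all actives have a fitted effect of over 50% in size; the assay follows cell death caused by Vpr and the record does not say whether a fall means rescue or toxicity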
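Fission yeast strain RE007, carrying one chromosomally integrated HIV-1 vpr copy, was seeded at OD 0.01 in PMG+AL medium with 23 nL pinned compound. After 24 h at 30 °C and 99% humidity, viability was read by BacTiter-Glo luminescence.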
Numbers without * were called inactive; [ ] = dose if it differs, or a comment. Unless noted, calls follow the shape of the dose curve; as a rule, active = well fitted curve in the direction sought with a large enough effect; inconclusive = small, poorly fitted or top-dose-only effect, or another doubt; inactive = no such curve, though single readings can be large; an effect the other way counts as inactive or inconclusive. Potency is read from the fitted curve at half-maximal effect.

Results for O=C(CCC1CCCC1)N1CCc2c([nH]c3ccccc23)C1c1ccc(Cl)cc1 (stereo not drawn) ?
StopGo reporter: -13%; Cruzain noTriton: 7.9µM*; Cruzain Triton: 4.1%; LASV entry inh: inconclusive

Results for CCC(=O)OCc1cc2cccc(C)c2[nH]c1=O ?
MARV entry inh: 3%; NS1 function inh: -3%; SARS PLpro yeast: -2%; Cruzain noTriton: 12%; Cruzain Triton: -1.2%; LASV entry inh: 4%; RE007 growth inh: 5%

What do the screens show for `COc1ccc(OCCC(=O)OCc2c(C)noc2C)cc1`?
MARV entry inh: 16%; NS1 function inh: -92%; StopGo reporter: 1%; SARS PLpro yeast: 8%; Cruzain noTriton: 0%; Cruzain Triton: 4.6%; LASV entry inh: 2%; RE007 growth inh: 8%

How did CN1CCCN(C(=O)c2cccc(Cl)c2)CC1 do in these assays?
NS1 function inh: -9%; StopGo reporter: 2%; SARS PLpro yeast: 3%; RE007 growth inh: -1%

What do the screens show for `Cc1cc(C(=O)N2CCc3ccccc32)n(-c2ccccc2)n1`?
NS1 function inh: inconclusive; StopGo reporter: -18%; SARS PLpro yeast: -5%; Cruzain noTriton: 10%; Cruzain Triton: -0.9%; RE007 growth inh: 9%

Results for CCOc1ccc(Oc2nc(NCC(C)C)nc(N(C)C)n2)nn1 ?
MARV entry inh: -4%; NS1 function inh: 5%; StopGo reporter: -19%; SARS PLpro yeast: 3%; Cruzain noTriton: 11%; Cruzain Triton: 1.8%; LASV entry inh: 14%; RE007 growth inh: 17%

What do the screens show for `C[C@H](NC(=O)[C@@H]1Cc2ccccc2CN1)C(=O)NC1CCCCC1`?
MARV entry inh: -10%[46.1 µM]; NS1 function inh: -7%; StopGo reporter: 24%; SARS PLpro yeast: 1%; LASV entry inh: 2%[46.1 µM]; RE007 growth inh: -20%

How did Clc1ccc2oc(-c3ccccc3)nc2c1 do in these assays?
MARV entry inh: inconclusive; NS1 function inh: 6%; StopGo reporter: 32%[activator]; SARS PLpro yeast: -3%; Cruzain noTriton: 3%; Cruzain Triton: 2.7%; LASV entry inh: -2%; RE007 growth inh: -26%

Results for CCOc1ccc(C(=O)NCC(c2ccco2)N2CCc3ccccc3C2)cc1 (stereo not drawn) ?
MARV entry inh: -16%; StopGo reporter: -19%; SARS PLpro yeast: 2%; LASV entry inh: -17%; RE007 growth inh: -2%

How did CC(=O)Nc1ccc(OCC(O)Cn2cccn2)cc1 (stereo not drawn) do in these assays?
NS1 function inh: 15%; StopGo reporter: 8%; SARS PLpro yeast: -1%; RE007 growth inh: 5%

What do the screens show for `O=C1NCCCC1C(=O)N1CCN(C(=O)C2CCCNC2=O)CC1` (stereo not drawn)?
MARV entry inh: 2%; NS1 function inh: 14%; SARS PLpro yeast: 4%; Cruzain noTriton: 1%; Cruzain Triton: 5.8%

How did Nc1ncc(-c2nnnn2-c2ccc(Cl)cc2)c(-c2ccc(Cl)cc2)n1 do in these assays?
MARV entry inh: inconclusive; NS1 function inh: 2%; StopGo reporter: -12%; SARS PLpro yeast: -8%; Cruzain noTriton: -6%; Cruzain Triton: -0.9%; LASV entry inh: inconclusive; RE007 growth inh: 0%

How did CCCc1cc(=O)[nH]c(SCC(=O)N(CCOC)c2c(N)n(Cc3ccccc3)c(=O)[nH]c2=O)n1 do in these assays?
MARV entry inh: 0%; StopGo reporter: -9%; SARS PLpro yeast: 0%; LASV entry inh: -10%; RE007 growth inh: -12%

What do the screens show for `CCOC(=O)c1sc(-c2cccc(C(F)(F)F)c2)nc1O`?
NS1 function inh: -44%; StopGo reporter: -12%; SARS PLpro yeast: -5%; RE007 growth inh: inconclusive

What do the screens show for `CC(=O)Nc1ccc(S(=O)(=O)NC2(C(F)(F)F)NC(=O)N(C3CCCC3)C2=O)cc1` (stereo not drawn)?
MARV entry inh: inconclusive; NS1 function inh: 0%; StopGo reporter: -12%; SARS PLpro yeast: 2%; Cruzain noTriton: 9%; Cruzain Triton: 0.0%; LASV entry inh: 13%; RE007 growth inh: -1%

What do the screens show for `N#C/C(=C\c1ccc(Cl)cc1)C(=O)NC1CC1`?
MARV entry inh: -14%; StopGo reporter: 17%; LASV entry inh: -7%; RE007 growth inh: -20%

How did OC(COCC1COc2ccccc2O1)CN1CCN(c2ccccc2)CC1 (stereo not drawn) do in these assays?
MARV entry inh: -9%; NS1 function inh: inconclusive; StopGo reporter: inconclusive; SARS PLpro yeast: -4%; Cruzain noTriton: -9%; Cruzain Triton: 6.4%; LASV entry inh: 0%; RE007 growth inh: 8%

How did CCOc1ccc(NC(=O)CN(C)C(=O)c2ccc(NC3CC3)c([N+](=O)[O-])c2)cc1OCC do in these assays?
MARV entry inh: -19%[46.1 µM]; StopGo reporter: -8%; SARS PLpro yeast: 2%; LASV entry inh: -9%; RE007 growth inh: -8%

Results for COc1ccc(-n2c(=O)c3c(c4cc(OC)ccc4n3C)n(Cc3ccc(F)cc3Cl)c2=O)cc1 ?
StopGo reporter: 7%; Cruzain noTriton: -3%; Cruzain Triton: 0.1%; LASV entry inh: 19%[46.1 µM]

Results for CCOc1ccc(NC(=O)Cn2cnc3nc4c(cc3c2=O)CCCC4)cc1 ?
StopGo reporter: -19%; Cruzain noTriton: 0%; Cruzain Triton: -0.6%; LASV entry inh: 9%[46.1 µM]

Results for COCCCNC(=O)CCCn1c(=O)c2cccn2c2cccnc21 ?
StopGo reporter: -7%; Cruzain noTriton: 1%; Cruzain Triton: -5.0%; LASV entry inh: inconclusive

What do the screens show for `CCOc1ccc(OCCCC(=O)O)cc1`?
MARV entry inh: 2%; NS1 function inh: -55%; StopGo reporter: 2%; SARS PLpro yeast: 6%; Cruzain noTriton: 1%; Cruzain Triton: 2.8%; LASV entry inh: -1%; RE007 growth inh: -3%

Results for CCOc1ccc(NCC(=O)c2ccc(C)cc2)cc1 ?
MARV entry inh: 0%[46.1 µM]; StopGo reporter: 11%; SARS PLpro yeast: -1%; LASV entry inh: -10%; RE007 growth inh: 6%

What do the screens show for `Cc1ccc(OCC(=O)Nc2ccc(S(=O)(=O)N3CCCC3)cc2)cc1`?
MARV entry inh: 8%[46.1 µM]; NS1 function inh: -1%; StopGo reporter: 0%; SARS PLpro yeast: 3%; LASV entry inh: -13%[46.1 µM]; RE007 growth inh: 1%

How did O=C(NCc1cccs1)C1CCCN(S(=O)(=O)c2cccs2)C1 (stereo not drawn) do in these assays?
MARV entry inh: -3%; NS1 function inh: 4%; StopGo reporter: -10%; SARS PLpro yeast: 0%; Cruzain noTriton: 2%; Cruzain Triton: -0.9%; LASV entry inh: 0%; RE007 growth inh: 2%

Results for O=C(NCc1ccc(F)cc1)C1CCC(CNc2c(N3CCOCC3)c(=O)c2=O)CC1 (stereo not drawn) ?
NS1 function inh: 4%; StopGo reporter: -10%; SARS PLpro yeast: 2%; RE007 growth inh: -14%

What do the screens show for `COCC(C)NC(=O)c1nn(Cc2ccccc2)c(=O)c2ccccc12` (stereo not drawn)?
MARV entry inh: inconclusive; NS1 function inh: 4%; StopGo reporter: -20%; SARS PLpro yeast: -2%; LASV entry inh: -15%; RE007 growth inh: -11%

How did COCCN(Cc1cc2cc(C)ccc2n2nnnc12)C(=S)Nc1ccc(C)cc1 do in these assays?
MARV entry inh: -18%; StopGo reporter: -5%; SARS PLpro yeast: 0%; LASV entry inh: -19%; RE007 growth inh: -12%

Results for Cc1ccc(O)c(NC(=O)c2cc(-c3ccc(F)cc3)no2)c1 ?
StopGo reporter: 41%; Cruzain noTriton: inconclusive; Cruzain Triton: -7.4%; LASV entry inh: -22%[46.1 µM]

How did CCOP(=O)(Nc1cccc2oc(=O)c3ccccc3c12)OCC do in these assays?
MARV entry inh: 8%; StopGo reporter: -4%; LASV entry inh: 1%; RE007 growth inh: -2%

How did O=C(CCC(=O)N1CCN(c2ccccc2F)CC1)c1ccc(F)cc1 do in these assays?
MARV entry inh: 22%[46.1 µM]; NS1 function inh: 0%; StopGo reporter: -8%; SARS PLpro yeast: -1%; LASV entry inh: -27%; RE007 growth inh: 6%

How did O=C(C1=C[C@@H](c2ccc(C(F)(F)F)cc2)C[C@@H](OCCCCO)O1)N1CCOCC1 do in these assays?
NS1 function inh: -9%; StopGo reporter: 1%; SARS PLpro yeast: -1%; RE007 growth inh: 10%

Results for Cc1cccc(-c2nc(CN3CCCC(C(=O)N4CCN(c5cc(Cl)ccc5C)CC4)C3)c(C)o2)c1 (stereo not drawn) ?
MARV entry inh: inconclusive; StopGo reporter: inconclusive; Cruzain noTriton: 14%; Cruzain Triton: -1.2%; LASV entry inh: 26%[46.1 µM]

How did O=S(=O)(c1ccc(Cl)cc1)c1nc(-c2ccccc2Br)oc1N1CCOCC1 do in these assays?
StopGo reporter: -7%; Cruzain noTriton: -8%; Cruzain Triton: -11%; LASV entry inh: -13%[46.1 µM]

Results for CCOC(=O)C1(C(C)(C)CC)CC(CSc2nc3ccccc3[nH]2)OC1=O (stereo not drawn) ?
MARV entry inh: inconclusive; NS1 function inh: -23%; StopGo reporter: 0%; SARS PLpro yeast: -26%; Cruzain noTriton: -4%; Cruzain Triton: -11%; LASV entry inh: inconclusive; RE007 growth inh: -14%

How did N#Cc1c(N)n(-c2ccc(O)cc2)c2nc3ccccc3nc12 do in these assays?
MARV entry inh: -11%[46.1 µM]; NS1 function inh: 8%; StopGo reporter: -17%; SARS PLpro yeast: 0%; LASV entry inh: -10%[46.1 µM]; RE007 growth inh: -29%

Screening results (PubChem BioAssay)
